High-throughput results from PubChem BioAssay.
CSC inhib = blocks cancer stem cells; cancer stem cell-like cells viability, luminescence; inhibition, % at 7.5 µM; 1.1% of 300,000 active; AID 2717;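 active means mean at 75% or more and at least half the replicates too; tested in HMLE shEcad cells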;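 further: 0% = median of negative and 100% = median of positive control wells; the first replicate is given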
MT1-MMP act inh = blocks activation of human MT1-MMP | HT1080 RFP-PRO-GFP cells, GFP/RFP ratio fluorescence, overnight; percent of plate control window, DMSO zero | GFP/RFP ratio change, % at 20 µM | 0.061% of 360,000 active;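 active means GFP/RFP ratio change of at least 30% with cell ATP level not reduced by more than half and red fluorescence within 50% of control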; further: strong numbers were not always called active
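Assay system: RFP-PRO-GFP reporter HT1080 cells; read-out basis: GFP/RFP fluorescence ratio; benchmarks: DMSO wells and RFP-L50D-GFP cells; doses: 20 µM single dose, 1% DMSO; schedule: overnight cell settling, then overnight compound exposure, 37 °C, 5% CO2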
UUG fidelity = yeast start codon fidelity modulation. S. cerevisiae UUG-firefly luciferase reporter, luminescence/redox ratio. activity score, % at 18.7 µM. 0.13% of 350,000 active;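 active means replicate mean at a twofold rise or more, about +100% in these data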;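 further: firefly luciferase made from a UUG start codon reports start codon fidelity; reporter light over untreated wells divided by growth signal over untreated wells; some hits fall short of that in this replicate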
Rce1 inhib = blocks yeast Ras-converting enzyme; Q03530; yeast membranes, quenched prenylated peptide cleavage fluorescence; calls only; 0.27% of 290,000 active; AID 2563;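 active means fall in fluorescence gain of 50% or more versus controls, with final raw signal at or below 3038400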;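 further: plate controls were neutral control wells for no effect and wells lacking membranes for full effect; tested at 10 µM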
Target sequence (Q03530 whole entry, looked up): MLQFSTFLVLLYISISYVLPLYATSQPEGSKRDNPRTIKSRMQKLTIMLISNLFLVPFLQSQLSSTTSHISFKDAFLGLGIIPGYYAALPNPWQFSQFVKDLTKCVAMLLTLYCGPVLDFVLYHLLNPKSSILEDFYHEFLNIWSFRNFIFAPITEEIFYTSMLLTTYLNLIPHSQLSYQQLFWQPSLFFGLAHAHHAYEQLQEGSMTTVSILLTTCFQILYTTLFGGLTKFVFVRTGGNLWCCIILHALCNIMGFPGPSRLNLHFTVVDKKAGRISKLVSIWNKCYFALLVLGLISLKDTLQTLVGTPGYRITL
eIF4H inh = inhibitors of RNA binding by human eIF4H | Q15056 | eIF4H fluorescence polarization binding assay | inhibition, % at 35 µM | 0.94% of 290,000 active;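 active means 50% or more with normal probe brightness, or confirmed in later tests; about a fifth of its hits are not listed in these tables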;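 further: calls also rest on retests at 20 µM and on dose response follow-up; 0% = protein and probe with vehicle and 100% = probe without protein; strong numbers were not always called active; many hits fall short of the cut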
PABP FP inh = blocks human PABP binding to poly(A) RNA. P11940. fluorescence polarization. inhibition, % at 35 µM. 1% of 290,000 active;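 active means 50% or more with normal probe brightness, or confirmed in later tests; about a fifth of its hits are not listed in these tables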;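 further: calls also rest on retests at 20 µM and on dose response follow-up; controls were probe without protein and protein plus probe with vehicle; some compounds called inactive have numbers as strong as hits; many hits fall short of the cut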
Target sequence (P11940 whole entry, looked up): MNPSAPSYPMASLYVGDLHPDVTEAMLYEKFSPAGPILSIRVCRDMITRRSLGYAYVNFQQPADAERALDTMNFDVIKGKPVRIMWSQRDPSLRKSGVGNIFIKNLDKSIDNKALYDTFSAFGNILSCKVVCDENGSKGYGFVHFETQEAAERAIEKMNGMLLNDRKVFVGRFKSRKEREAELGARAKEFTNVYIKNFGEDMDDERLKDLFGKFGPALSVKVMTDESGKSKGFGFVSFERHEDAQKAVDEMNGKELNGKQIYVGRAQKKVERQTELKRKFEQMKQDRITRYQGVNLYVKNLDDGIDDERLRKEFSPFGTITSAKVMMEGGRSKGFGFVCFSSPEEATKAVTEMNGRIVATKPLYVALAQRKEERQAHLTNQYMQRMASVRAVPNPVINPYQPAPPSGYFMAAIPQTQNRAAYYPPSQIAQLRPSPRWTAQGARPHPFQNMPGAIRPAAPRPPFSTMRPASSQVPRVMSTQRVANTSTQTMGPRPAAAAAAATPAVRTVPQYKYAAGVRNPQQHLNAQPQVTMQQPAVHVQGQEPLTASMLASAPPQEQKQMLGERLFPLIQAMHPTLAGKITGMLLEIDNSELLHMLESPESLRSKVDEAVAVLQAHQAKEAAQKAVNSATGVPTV
HIV Env fusion = inhibitors of HIV Env-mediated cell fusion | HeLa-JRFL Env/CEM21 cell fusion, luciferase | inhibition, % at 12.3 µM | 1.1% of 360,000 active | AID 651610;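 active means mean replicate inhibition score of at least 50 and every replicate individually at or above 50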;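 further: 0% = plate neutral controls and 100% = maraviroc near 300 nM; one replicate is shown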
eIF4H inh retest = second read-out of eIF4H inh, no call of its own (marks repeat the call); inhibition, %; compound at 20 µM; confirmation average;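 mean of two retest wells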
PABP FP inh retest = further read-out of PABP FP inh, marked with its call; inhibition, %; compound at 20 µM; confirmation repeats;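 mean of two retest wells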
MT1-MMP act inh RFP = second read-out of MT1-MMP act inh, no call of its own (marks repeat the call); RFP signal change, %; measured here: RFP expression control read;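 0 = vehicle wells; hits needed this value within 50% of zero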
The depositor's hits bear a star; i = inactive; · = no result given. Some of the compounds tested. The share of hits here may be higher or lower than overall.

SMILES	CSC inhib	MT1-MMP act inh	MT1-MMP act inh RFP	UUG fidelity	Rce1 inhib	eIF4H inh	PABP FP inh	HIV Env fusion	others
NNC(=O)CCc1ccc(S(=O)(=O)N2CCOCC2)cc1	2	-3	1	·	i	9	-1	-62
N#CC1=C(N)Nc2ncnn2C1c1ccc(F)cc1 (stereo not given)	·	-3	6	·	i	-9	-8	·
c1ccc(OCCOc2ncnc3sccc23)cc1	-16	1	5	-2	i	-6	-2	-35
CCCn1c(=O)c(C(=O)NCc2ccncc2)c(O)c2ccccc21	-9	0	-2	-17	i	-2	1	·
Cc1sc2nc(SCC(=O)Nc3ccc(Cl)c(C(=O)O)c3)[nH]c(=O)c2c1C	·	1	6	-36	·	·	·	-2
COc1cc2c(cc1OC)C(C)N(C(=O)c1cc3c(s1)-c1c(C)cccc1OC3)CC2 (stereo not given)	51	-3	-1	-13	i	-9	11	31
C=CCn1c(-c2ccccc2OC)n[nH]c1=S	-11	3	4	·	i	-7	-7	·
CC(C)C(NS(=O)(=O)c1cccc2nsnc12)C(=O)N1CCc2ccccc2C1 (stereo not given)	-14	-2	3	2	i	-12	-3	11
CC1(C(=O)Nc2ccc3c(c2)OCCO3)CCN1C(=O)CC1CCCC1 (stereo not given)	·	0	-1	-3	·	·	·	4
O=C(NCc1ccco1)/C(=C/C=C/c1ccccc1)NC(=O)c1ccco1	5	-3	-1	·	i	-4	10	-12
COc1ccccc1Cn1nnc2c(=O)[nH]c(C3CCN(C(=O)c4ccc(C)cc4)CC3)nc21	-10	3	-5	9	i	-8	-2	·
O=S(=O)(NCc1cc(-c2ccccc2)no1)c1ccc(Cl)cc1	-10	1	-3	·	i	-1	-1	17
COc1ccc(N(C(=O)c2ccc(C)cc2)S(=O)(=O)c2cccs2)cc1	0	6	-6	·	i	1	-3	-11
O=[N+]([O-])c1ccc2nc(/C=C/c3ccc(Cl)cc3)[nH]c2c1	56	16	-7	-27	i	3	-11	-61
Cc1c(C(=O)Nc2ccc(Cl)cc2)c2ccccn2c1C(=O)c1ccc([N+](=O)[O-])cc1	-3	6	-4	-7	i	-12	8	-28
COc1cccc(C(=O)NCC(=O)N/N=C/c2ccc3c(c2)OCO3)c1	-2	-3	-1	-8	i	12	10	-3
CCOC(=O)N1CCN(C2=C(NS(=O)(=O)c3ccc(NC(C)=O)cc3)C(=O)c3ccccc3C2=O)CC1	2	3	4	-32	i	-8	2	16
O=C(Cn1nc(C(=O)O)c2ccccc2c1=O)Nc1cc(Cl)cc(Cl)c1	-12	2	4	-12	·	-5	-6	5
Cc1ccc(NCc2nc3ccccc3n2C)c(C)c1	-5	-1	-1	-43	i	-2	4	-50
O=C(O)c1cccc(S(=O)(=O)NCC2COc3ccccc3O2)c1 (stereo not given)	·	0	2	-8	·	·	·	-1

Brought forward from above: 6 entries, followed by the next part.
SMILES	CSC inhib	MT1-MMP act inh	MT1-MMP act inh RFP	UUG fidelity	Rce1 inhib	eIF4H inh	PABP FP inh	HIV Env fusion	others
Cc1c(C(=O)Nc2ccc(Cl)cc2)c2ccccn2c1C(=O)c1ccc([N+](=O)[O-])cc1	-3	6	-4	-7	i	-12	8	-28
COc1cccc(C(=O)NCC(=O)N/N=C/c2ccc3c(c2)OCO3)c1	-2	-3	-1	-8	i	12	10	-3
CCOC(=O)N1CCN(C2=C(NS(=O)(=O)c3ccc(NC(C)=O)cc3)C(=O)c3ccccc3C2=O)CC1	2	3	4	-32	i	-8	2	16
O=C(Cn1nc(C(=O)O)c2ccccc2c1=O)Nc1cc(Cl)cc(Cl)c1	-12	2	4	-12	·	-5	-6	5
Cc1ccc(NCc2nc3ccccc3n2C)c(C)c1	-5	-1	-1	-43	i	-2	4	-50
O=C(O)c1cccc(S(=O)(=O)NCC2COc3ccccc3O2)c1 (stereo not given)	·	0	2	-8	·	·	·	-1
Cc1ccc(S(=O)(=O)N(C)c2ccc3sc(C)nc3c2)cc1	-13	2	-4	·	i	-5	-2	-45
CCOc1ccccc1N1Cc2ccccc2C1	-2	-10	1	-12	i	-1	5	-51
Cc1ccc(CN2CCN(Cc3cnc(N4CCOCC4)s3)CC2CCO)o1 (stereo not given)	-4	0	5	·	i	-4	7	1
CCc1c(C(=O)Nc2ccccc2C(N)=O)csc1C	-5	-1	-1	-11	i	4	2	-26
O=C(O)c1cc(NN=Nc2cccc(S(=O)(=O)O)c2)cc([N+](=O)[O-])c1	6	-5	1	-4	i	-8	8	22
CC(CC(=O)Nc1nnc(C(C)(C)C)s1)c1ccccc1 (stereo not given)	-12	6	-1	-3	i	-7	-4	0
COc1cc([N+](=O)[O-])ccc1NC(=O)C1C2C=CC(C2)C1C(=O)O (stereo not given)	-2	-3	2	-12	i	-2	3	0
CCCCOC(=O)CSc1nc(N)c(C#N)c(-c2ccc(OCC)cc2)c1C#N	14	3	4	-12	i	-9	-1	13
O=c1c2ccccc2nc(SCc2cn3ccsc3n2)n1-c1ccccc1	·	-3	-2	-35	i	-1	-5	·
CSCCC(NS(=O)(=O)c1ccc2c(c1)oc(=O)n2C)C(=O)NCc1ccccc1 (stereo not given)	-13	-3	-4	·	i	-2	-6	-4
COc1ccc(-c2cc(C(=O)NC(C)c3ccccn3)c3ccccc3n2)cc1OC (stereo not given)	-7	-2	-1	6	·	·	·	·
CC1=C(C(=O)OCC2CCCO2)C(c2coc3ccccc3c2=O)C2=C(CCCC2=O)N1 (stereo not given)	-18	-3	2	·	i	1	1	9
COc1ccc(CCNC(=O)CN(c2ccc(OC)c(OC)c2)S(=O)(=O)c2ccccc2)cc1OC	-2	2	3	4	i	-11	-2	·
COc1ccc(-c2csc3nc(-c4ccc(C)cc4)oc(=O)c23)cc1OC	23	0	-1	·	i	13	-2	5
CCCCN(C(=O)CCCSc1nc2ccccc2[nH]1)c1c(N)n(Cc2ccccc2)c(=O)[nH]c1=O	-2	-3	0	-18	i	2	2	7
COc1ccccc1N1CCN(C(=O)COc2cc(C)cc(C)c2)CC1	-6	2	-1	·	i	0	3	5
O=[N+]([O-])c1cccc(S(=O)(=O)N2CCN(c3ccccn3)CC2)c1	4	7	4	-6	i	-21	-6	-64
COc1ccc(S(=O)(=O)N2CCC(C(N)=O)CC2)c2ccccc12	-13	3	-7	-9	i	-2	-4	·
Cc1ccc(-n2nnnc2SCc2ccccn2)cc1C	-10	1	-3	-7	i	-1	3	4
COc1ccc(CNS(=O)(=O)NCc2ccccc2)cc1	-4	-2	0	·	i	-13	18	5
CCCOc1ccc(C(=O)N(CC(C)C)c2c(N)n(Cc3ccccc3)c(=O)[nH]c2=O)cc1	-17	1	-1	-22	i	·	·	6
O=C(NCCN1CCCCC1)c1c(O)c2ccccc2[nH]c1=O	-8	5	8	-9	i	1	16	-43
CCOCCCn1c(SCC(=O)Nc2ccc(C(N)=O)cc2)nc2ccccc2c1=O	-11	5	5	·	i	-7	0	-62
Cc1cc(NC(=O)/C=C/c2cccc(Cl)c2)n(-c2nc3ccccc3[nH]2)n1	-3	0	0	-16	i	7	4	3
CCN(CC)c1ccc(C2C(C(=O)OCCOC)=C(C)NC3=C2C(=O)CCC3)cc1 (stereo not given)	-5	1	2	-18	i	4	0	·
COc1c(Cl)cc(Cl)cc1CNCCNCC(C)O (stereo not given)	-7	-2	5	-15	i	-8	12	-17
Cc1cccc(CN2CCN(C3CN(C4CCCC4)S(=O)(=O)C3)CC2)c1 (stereo not given)	·	4	-1	8	·	·	·	-3
O=C(NCc1csc(-c2cccs2)n1)C1CCC1	-5	2	4	·	i	-1	-8	-16
CC1CCCN(C(=O)c2cc(-c3ccco3)nc3ccccc23)C1 (stereo not given)	-4	-6	-1	0	·	·	·	-10
Cc1ccc(S(=O)(=O)NN=C2CCCc3ccccc32)cc1	·	-3	-5	-6	·	·	·	-18
CC1COc2ccccc2N1C(=O)c1ccc(Cl)cc1 (stereo not given)	-10	1	-1	0	i	-1	1	-14
CCc1ccc(C(=O)N2CCN(c3ccc(F)cc3)CC2)s1	1	5	-6	-2	i	1	-1	-41
CC(=O)c1cnc2cc(C)nn2c1C	1	3	6	-20	i	-5	-8	·
O=C(c1ccccc1)C1CCN(C(=O)c2ccc(Cl)cc2)CC1	·	-4	-7	5	i	2	1	22
CC(C)CC(c1nnnn1CCc1ccccc1)N1CCC(C(N)=O)CC1 (stereo not given)	-3	1	-1	3	i	0	7	·
Oc1ccccc1-c1n[nH]c(=S)n1Cc1ccccc1	1	-2	-2	6	i	-7	-8	7
CCC(=O)c1ccc(OCC(=O)NC2CCN(Cc3ccccc3)CC2)cc1	19	0	4	-17	·	·	·	·
O=S(=O)(Nc1ccc2c(c1)OCCO2)c1ccc2oc3ccccc3c2c1	27	-4	-11	10	i	2	1	·
CCCOc1ccc(C(=O)Nc2ccc(S(=O)(=O)Nc3cc(C)nc(C)n3)cc2)cc1	0	-1	-7	-8	i	-8	14	18
CCN(CC)C(=O)c1sc2c(c1C)c(=O)n(-c1ccc(C)c(C)c1)c(=O)n2CC(=O)NCC1CCCO1 (stereo not given)	-10	-1	0	-9	i	2	0	1
O=C1/C(=C\c2cccc([N+](=O)[O-])c2O)SC(=S)N1Cc1ccccc1	35	91	63	-12	i	-1	17	14
O=S(=O)(c1ccc(NC(=S)N/N=C/c2ccc(O)c(O)c2)cc1)N1CCOCC1	1	7	0	-35	i	6	20	6
Oc1ccc(-c2nc3ncccn3c2Nc2ccc3c(c2)OCO3)cc1	11	-2	-6	-11	i	18	17	·
Clc1ccc(-c2nc3ccccc3n2OCc2ccccc2)cc1	-2	-7	-10	-14	i	5	12	-8
CCc1nc2c(OCc3ccc(F)c(F)c3)cccn2c1N(C)C(=O)C1CC1	·	0	4	-13	·	·	·	5
COc1ccccc1OCC(=O)NCC1CCCN(Cc2cnn(C)c2C)C1 (stereo not given)	-9	-2	2	-11	·	-12	-1	0
CC(NC(=O)/C=C/c1cnc2ccccc2n1)C12CC3CC(CC(C3)C1)C2 (stereo not given)	6	-8	-9	-6	i	7	-6	32
CN(C)c1ccc(/C=C/C(O)=C2/C(=O)N(C)C3(C)CC2c2ccccc2O3)cc1 (stereo not given)	6	·	·	·	i	105	118	·	eIF4H inh retest=2;PABP FP inh retest=-6
CC1(C)CC(=O)C2=C(C1)NC(=O)CC2c1ccc(F)cc1 (stereo not given)	-16	1	2	-10	i	0	-9	·
N#CC1=C2C=Cc3ccccc3N2CCCC1=O	-18	-5	-1	8	i	8	-1	·
CCOC(=O)c1ccc(Nc2cc(C)nc(C)c2C(=O)OCC)cc1	-6	-2	-1	-1	i	-3	18	·
COc1cccc(OCc2cc(C(=O)NCC3CCCCC3)no2)c1	10	1	4	-4	i	-7	-5	-13
CC(C)NC(=S)N/N=C/c1c[nH]c2ccccc12	·	4	-2	·	i	-1	-10	·
COc1ccc(C(C)(O)c2nc(-c3ccc(OC)c(OC)c3)cs2)cc1 (stereo not given)	·	2	-1	-1	·	·	·	-5
C=CCn1c(-c2cccc(OCC)c2)n[nH]c1=S	-7	7	1	-20	i	-12	7	-21
CCCCN1CC(COCc2ccccc2)Oc2ccccc2S1(=O)=O (stereo not given)	·	2	-4	-24	·	·	·	-6
COc1ccc(-c2cc(C(F)(F)F)nc(SCCC(=O)NCc3ccccc3)n2)cc1	-5	6	-3	·	i	-13	-12	·
Cc1c(C(=O)NCc2ccc(Cl)c(Cl)c2)sc(=O)n1Cc1cccc(F)c1	·	-1	0	-9	·	·	·	-6
COc1cccc(NC(=O)CCC(=O)Nc2ccc3nc(N4CCOCC4)cc(C)c3c2)c1	2	-2	-1	15	i	-10	4	-53
O=C(NC1CCCC1)C1CCC(=O)N1C1CCCCC1 (stereo not given)	-6	0	1	·	i	-3	-10	-13
